Screens as filed in PubChem.
hNpr1 antagonist: Natriuretic polypeptide receptor (hNpr1) antagonism - Primary qHTS. Atrial natriuretic peptide receptor 1 (Homo sapiens), P16066. HEK293 hNpr1 GloSensor cGMP, ANP-stimulated luminescence. Potency, µM (titrated, usually from 46.3 µM), without a hit: top-dose activity change, negative = inhibition, usual class: inhibitors. actives 1.6% (n = 76,000). AID 1347048, 2019; active = well fitted inhibition curve with a large enough effect; inconclusive = small, poorly fitted or top-dose-only effect; inactive = no such curve, though single readings can be large or run the other way;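 also: nearly all actives have a fitted effect of over 60% in size; nearly all hits also lower the signal before the agonist is added; a reference antagonist and vehicle were the controls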
Target sequence (P16066 whole entry, looked up): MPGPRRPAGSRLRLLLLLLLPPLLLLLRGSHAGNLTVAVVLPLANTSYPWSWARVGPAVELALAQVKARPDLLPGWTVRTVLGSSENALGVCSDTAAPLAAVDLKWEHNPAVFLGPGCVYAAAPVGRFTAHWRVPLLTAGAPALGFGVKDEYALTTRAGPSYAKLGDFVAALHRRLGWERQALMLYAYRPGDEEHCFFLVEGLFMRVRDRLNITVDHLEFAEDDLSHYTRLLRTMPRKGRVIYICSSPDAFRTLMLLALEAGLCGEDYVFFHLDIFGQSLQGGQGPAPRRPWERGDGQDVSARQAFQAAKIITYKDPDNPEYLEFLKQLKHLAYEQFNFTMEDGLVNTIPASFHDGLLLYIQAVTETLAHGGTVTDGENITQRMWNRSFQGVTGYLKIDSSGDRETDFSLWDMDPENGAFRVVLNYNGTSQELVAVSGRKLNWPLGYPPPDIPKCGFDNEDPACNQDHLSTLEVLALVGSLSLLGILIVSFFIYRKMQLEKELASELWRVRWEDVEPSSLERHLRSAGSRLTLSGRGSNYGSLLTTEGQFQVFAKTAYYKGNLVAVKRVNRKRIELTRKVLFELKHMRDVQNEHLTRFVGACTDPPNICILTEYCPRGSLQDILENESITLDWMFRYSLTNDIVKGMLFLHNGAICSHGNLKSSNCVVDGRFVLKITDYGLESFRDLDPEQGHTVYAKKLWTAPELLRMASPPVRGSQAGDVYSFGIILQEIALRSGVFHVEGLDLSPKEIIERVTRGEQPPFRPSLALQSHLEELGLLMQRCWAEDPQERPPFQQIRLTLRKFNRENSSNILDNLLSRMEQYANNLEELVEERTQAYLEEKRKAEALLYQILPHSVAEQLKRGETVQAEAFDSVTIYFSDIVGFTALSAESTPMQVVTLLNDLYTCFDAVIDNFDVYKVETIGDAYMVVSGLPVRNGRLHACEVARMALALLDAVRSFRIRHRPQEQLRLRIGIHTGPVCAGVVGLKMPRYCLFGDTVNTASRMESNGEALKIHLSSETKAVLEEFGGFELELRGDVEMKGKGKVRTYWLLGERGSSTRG
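Compound pre-incubated 30 min at room temperature on GloSensor-loaded HEK293 cells stably carrying hNpr1 and the pGS-40F cGMP biosensor. Stimulation uses hNppA at 0.1 nM final; luminescence is taken at baseline and 20 min post-agonist.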
* marks the source's active call; other numbers are inactive results; u = inconclusive; [ ] = dose if it differs, or a comment. % is scaled to controls: 0 for no effect and ±100 for the full control effect; potency is read from the fitted curve at half-maximal effect. These rows are one share of the data; count on the stated rates, not on these rows.

The opening 3 records, ahead of the listing:
SMILES	hNpr1 antagonist
CC(NC(=O)c1noc(-c2ccc3c(c2)OCO3)n1)c1ccc(F)cc1 (configuration not stated)	5%
CCn1ncc(-c2nc3cc(S(=O)(=O)N4CCCC4)ccc3n2C)c1C	-8%
Cc1cc(Cl)ccc1NC(=O)NCC1CCOCC1	6%

The listing, from the start:
SMILES	hNpr1 antagonist
CC(NC(=O)c1noc(-c2ccc3c(c2)OCO3)n1)c1ccc(F)cc1 (configuration not stated)	5%
CCn1ncc(-c2nc3cc(S(=O)(=O)N4CCCC4)ccc3n2C)c1C	-8%
Cc1cc(Cl)ccc1NC(=O)NCC1CCOCC1	6%
O=C(c1ccccc1F)N1CCC2(CC1)CC(=O)N(c1ccccc1)c1ccccc1O2	21%
CC(C)CCN1C(=O)CC[C@]2(C(=O)NC3CCCC3)CCCC[C@@H]12	-11%
COc1ccc(C(=O)NCCc2noc(C3CC3)n2)c(OC)n1	-16%
Cc1cnccc1-c1ccc(NC(=O)NC2CC2)cc1	2%
CN(C)S(=O)(=O)N1CCCOCCNC(=O)[C@@H]2CCC[C@@H]21	0%
O=c1c2nc(-c3ccccc3)ccc2ncn1Cc1ccccn1	1%[70.6 µM]
Cc1ccccc1CN1CCc2nc(C(=O)N3CCOCC3)oc2CC1	u
Cc1ccccc1C(=O)N1CCn2c(nnc2-c2ccccc2)C1	3%[70.6 µM]
O=C(Cc1ccsc1)N1CCC(c2nc(C3CCOCC3)no2)C1 (configuration not stated)	0%
CC(=O)Nc1cccc(C(=O)N2CCC(n3cc(-c4nc(C5CC5)no4)nn3)C2)c1 (configuration not stated)	3%
Cc1cccc(Nc2nc(N)nc(CN3CC[C@@H](N)[C@H](O)C3)n2)c1	2%
O=C(NCc1cc(-c2ccccn2)no1)[C@H]1CNC[C@@H](C(=O)N2CCOCC2)C1	1%
O=C(NC[C@H]1Cn2cc(-c3ccccc3)nc2CO1)Nc1ccc(F)cc1	-16%[70.6 µM]
COc1ccc2[nH]c(C[C@@H]3C[C@@H](C(C)C)[C@H](CN(C)C)C=C3C)nc2n1	-13%[70.6 µM]
COC[C@@H]1CN(C(=O)c2ccc(OC)nc2OC)C[C@H]1c1ccncc1	-2%
COc1cc(OC)c(NC(=O)CN2C(=O)NC(c3ccc(C)cc3)C3=C2COC3=O)cc1Cl (configuration not stated)	-11%
Cc1ccc2c(c1)c(C(=O)N[C@H](c1cnn(C)c1)C1CC(O)C1)nn2C (some centres not stated)	-2%
CSc1ccc(NC(=O)c2nnn3c2COC(c2ccc(C)cc2)C3)cc1 (configuration not stated)	-8%
COCCN1C(=O)c2ccccc2C(C(=O)N2CCC(C)CC2)C12CCCC2 (configuration not stated)	-4%
O=C1CCN(C(=O)Cc2cccc(F)c2)CCCOCCN1	-2%
CC(=O)Nc1ccc(S(=O)(=O)N[C@H]2CO[C@H]3[C@@H]2OC[C@@H]3n2nnnc2Oc2ccc3c(c2)OCO3)cc1	-7%
COc1ccc(CNC(=O)N2CCCC2c2noc(COc3ccc(C)cc3)n2)cc1 (configuration not stated)	-18%
SMILES	hNpr1 antagonist
CCc1noc(CN2CCOc3c(O)cc(-c4ccccc4C)cc3C2)n1	-14%
CC(C)c1nc(NC2CCCC2)ncc1C(=O)O	0%
O=c1n(CC2CC2)nc2n1CCC(NS(=O)(=O)c1cccnc1)CC2 (configuration not stated)	5%
CCN(CC)C(=O)[C@@H]1CCC[C@@H](NC(=O)C2CCOCC2)CN(C)C(=O)C1	1%[70.6 µM]
Cc1cc(C)n(Cc2cccc(C(=O)N3CCC4(CC3)[C@H](O)C[C@@H]4O)c2)n1	3%
COc1ccc(-n2nc(C3CCN(C(=O)c4ccc(Cl)nc4)CC3)[nH]c2=O)cc1	-5%
CC(NC(=O)c1cc2n(n1)CC(c1ccc3c(c1)OCO3)OC2)c1ccccc1 (configuration not stated)	0%
Oc1ccc(CN2CC(CNc3ccccc3)C3(C2)CN(c2ccccc2)C3)cc1 (configuration not stated)	-22%[70.6 µM]
COCCn1ncc(N2CCCC(CC(=O)Nc3ccccc3OC)C2)cc1=O (configuration not stated)	-1%
O=C(Cc1c[nH]c2ncc(-c3ccc(F)cc3)cc12)NCc1cccnc1	u
Cc1noc([C@H]2CCN(C(=O)COc3ccc(F)cc3)C[C@H]2NC(=O)C2CC2)n1	4%
COc1cc(NC(=O)Cn2ccn3nc4c(c3c2=O)CCCCC4)cc(OC)c1OC	6%
COc1ccc(OC)c(S(=O)(=O)N[C@H]2CO[C@H]3[C@@H]2OC[C@H]3OC(=O)Nc2cccc(C(F)(F)F)c2)c1	13µM*
O=C1CC(c2ccccc2)N(C(=O)CNC(=O)c2ccc3cc[nH]c3c2)CCCCCN1 (configuration not stated)	3%
c1ccc(OCC2CN(Cc3ccncc3)CC23CN(c2ccccc2)C3)cc1 (configuration not stated)	-2%[70.6 µM]
CCOCc1nc(C2CCCN(C(=O)Cc3ccccc3C)C2)no1 (configuration not stated)	4%
COc1cccc(-c2cc3c(=O)n(CCNC(=O)c4cc(C)cc(C)c4)ccn3n2)c1	-22%
Cc1cc(-c2nc3ncccc3[nH]2)c(C)[nH]1	-1%[70.6 µM]
CCOc1ccc(C(=O)N2CCC3(CC2)C(=O)N(C)c2ccccc23)cc1OCC	-1%
COc1ccc(CC(=O)Nc2ccc([C@@H](O)[C@H]3COCC(=O)N3Cc3ccc(C(F)(F)F)cc3)cc2)cc1	-25%
CNC(=O)CCn1ncc2cc(OCc3ccccc3-c3cnc(OC)nc3)ccc21	-2%[70.6 µM]
O=C(NCCc1ccccc1)N1CCC2(CC1)CC(N1CCOCC1)CCO2 (configuration not stated)	10%
Cc1cccc(-n2c(=O)c3c(cc(C)n3C)n(CC(=O)Nc3ccc4c(c3)OCO4)c2=O)c1	3%
Cc1sc2ccn(C)c(=O)c2c1C(=O)N1CCN(c2ccc(Cl)cc2)CC1	-11%
CC(C)Cn1c(=O)n(CC(C)N2CCCC2)c2cc(C(=O)O)cnc21 (configuration not stated)	1%
SMILES	hNpr1 antagonist
CC(C)N1CCN(C(=O)c2cnc(-c3ccccc3)nc2-c2ccncc2)CC1	2%
CCCNc1cc(N2CCC(CCC(=O)O)CC2)ncn1	3%
O=C(c1ccc(F)cc1)N1CCC2(CC1)COc1ccccc1NC2=O	-4%
O=C(c1nnc(CNc2ccc(F)cc2)n1-c1ccccc1)N1CCC[C@@H]1C(c1ccccc1)c1ccccc1	0%
Cn1cnc(S(=O)(=O)N2CC(N(CC3CC3)C3CCOCC3)C2)c1	5%
CCN(C(=O)CCC(=O)N1CCc2nc3cc(-c4ccc(OC)cc4)[nH]n3c(=O)c2C1)c1ccccc1	-2%
COc1ccc(C(=O)N2C(C(=O)NC3CC3)COC23CCN(C(=O)Cc2cccs2)CC3)cc1 (configuration not stated)	7%
O=S(=O)(N[C@H]1[C@H](O)[C@H](O)C[C@@H]1c1cncnc1)c1ccc(Cl)cc1	5%[70.6 µM]
C=CCn1nc(C)c(CN2CC[C@H](N3CCN(C)CC3)[C@H](CCC(=O)O)C2)c1C	7%
COC[C@@H]1CN(C(=O)Cc2cc(C)no2)C[C@H]1c1ccncc1	-12%
COCC(=O)N1CCCC(C(=O)NCCNc2ncccc2C)C1 (configuration not stated)	1%
CCOCC1(C)COc2ccc(C(=O)Nc3ccccn3)cc2N1 (configuration not stated)	u
COc1ccc(NC(=O)c2ccc3c(c2)NC(C)(COc2ccc4[nH]ccc4c2)CO3)cn1 (configuration not stated)	-27%
CC(C)Oc1cccc2c1c(NC(=O)C1CC(=O)N(C)C1)nn2Cc1ccccc1 (configuration not stated)	4%
CC1(C)C(=O)N(Cc2ccccc2)[C@H]2CN(Cc3ccc(C#N)cc3)C[C@H]2[S+]1(=O)[O-]	0%[70.6 µM]
CCc1[nH]c2ccc(CNC(=O)[C@H]3[C@@H]4C=C[C@@]5(CN(C)C(=O)[C@@H]35)O4)cc2c1C	6%
COc1ccc(-n2cc(-c3ccnc(N(C)Cc4cnccn4)n3)cn2)cc1	1%
Cc1cc(C(=O)N2CCCC(Cc3noc(-c4cccnc4)n3)C2)nn1C (configuration not stated)	4%
CCc1nc2c(c(-c3ccc(Cl)cc3)n1)CN(Cc1ccc(N(C)C)cc1)CC2	2%
COc1ccc(CN2CCC3(CC2)CC(=O)Nc2ccccc2O3)cc1	8%
CCCc1nn(-c2ccccc2C)c(OC(C)=O)c1-c1ccc(NC(=O)CC)cc1	-1%
CNC(=O)N1C[C@@H](CN(C)C)[C@H](NS(=O)(=O)c2ccc3c(c2)CCC3)C1	5%
Cc1ccc(-c2nc(CNC(=O)C3(N)CC3)[nH]c2-c2ccccn2)cc1	-3%
CC(=O)NCC(=O)N1CCC(N2C(=O)C(OCC3CC3)C23CCOCC3)CC1 (configuration not stated)	-1%
CCc1ccc(C(=O)N2CCc3[nH]nc(C(=O)NC4CCN(C)CC4)c3C2)cc1	4%

Pulled by structure from the list above, 2 records:
SMILES	hNpr1 antagonist
CCc1nc2c(c(-c3ccc(Cl)cc3)n1)CN(Cc1ccc(N(C)C)cc1)CC2	2%
CC(C)Oc1cccc2c1c(NC(=O)C1CC(=O)N(C)C1)nn2Cc1ccccc1 (configuration not stated)	4%

Returning to the listing; the 5 compounds before the break are reprinted first.
SMILES	hNpr1 antagonist
CCCc1nn(-c2ccccc2C)c(OC(C)=O)c1-c1ccc(NC(=O)CC)cc1	-1%
CNC(=O)N1C[C@@H](CN(C)C)[C@H](NS(=O)(=O)c2ccc3c(c2)CCC3)C1	5%
Cc1ccc(-c2nc(CNC(=O)C3(N)CC3)[nH]c2-c2ccccn2)cc1	-3%
CC(=O)NCC(=O)N1CCC(N2C(=O)C(OCC3CC3)C23CCOCC3)CC1 (configuration not stated)	-1%
CCc1ccc(C(=O)N2CCc3[nH]nc(C(=O)NC4CCN(C)CC4)c3C2)cc1	4%
O=C(NC1CCN(c2cnn(Cc3ccccc3)c(=O)c2)CC1)c1ccsc1	6%
COCCOC1CCN(C(=O)c2ccc(Cc3c(C)noc3C)o2)CC1	-3%
CC1CCN(C(=O)Cn2ccn3nc(-c4ccccc4)c(CO)c3c2=O)CC1	1%
CS(=O)(=O)c1ccc(CC(=O)N[C@@H]2COCC[C@@H]2OCC2CC2)cc1	6%
NC(=O)[C@H](CCC(=O)O)NC(=O)[C@@]1(O)C[C@@H](O)[C@H](O)[C@@H](NS(=O)(=O)c2cccc(C(F)(F)F)c2)C1	-2%
COc1cc(Cl)cc(C(=O)N2CCC3(CCCNC3)C2)c1 (configuration not stated)	0%
COCc1nc(CCNC(=O)c2cnn3c(C)c(Cc4ccccc4Cl)c(C)nc23)no1	0%
CCOc1ccccc1CNC(=O)c1cccc2c1CCN2C(=O)CC	4%
COC(=O)C1=C(C)N(Cc2ccccc2F)C(=O)CC1c1ccccc1Cl (configuration not stated)	-1%
Cc1noc(C)c1[S+](=O)([O-])N(C)Cc1cccn1C	0%[70.6 µM]
Cc1ccccc1CN1C[C@H](O)C[C@H]1c1nc(-c2cccnc2)no1	1%[70.6 µM]
CN(C)CC(=O)N1C[C@@H]2CN(c3cc(C4CC4)ncn3)C[C@]2(C(=O)O)C1	-3%
COc1ccc(C(=O)NC2CCN(c3cc(-c4cccs4)[nH]n3)C2)cc1F (configuration not stated)	-1%
CC1=C[C@@H](CO)[C@H](C(C)C)C[C@H]1CC(=O)NCc1cc(F)cc(F)c1	-3%[70.6 µM]
O=C(Cc1ccccc1F)N1CCC2(CC1)CC(OCC1CC1)CCO2 (configuration not stated)	u
COC(=O)c1cccc(NC(=S)N[C@H]2CO[C@H]3[C@@H]2OC[C@H]3OC(=O)Nc2ccccc2)c1	-21%
C=CCC1(C(=O)O)CCCN(C(=O)c2cnn3c2CCCC3)C1 (configuration not stated)	0%
CC(C)c1ccc(C(=O)NCc2c[nH]c3ncccc23)cc1	-17%[70.6 µM]
CCn1cc(S(=O)(=O)N2CCc3n[nH]c(=O)n3CC2)cn1	1%
Cc1ccc(-c2cc3c(=O)n(CCNC(=O)c4ccc(F)c(F)c4)ccn3n2)cc1C	0%
O=C1CCCN1c1ccc(Cn2ccn3nc(-c4ccc(F)cc4)c(CO)c3c2=O)cc1	-25%
CN(CC(=O)N1CCC(C)(c2noc(C3CC3)n2)CC1)S(=O)(=O)c1cccs1	-2%
CCOC(=O)C1(Cc2ccccc2F)CCCN(C(=O)CCN2CCCCC2=O)C1 (configuration not stated)	1%
COCCN1CCCCCC(O)c2cc(C(=O)NCCC3=CCCCC3)ccc21 (configuration not stated)	3%
CCS(=O)(=O)N1C[C@@H](Oc2ccccc2)C[C@H]1C(=O)NC	1%
SMILES	hNpr1 antagonist
Cn1nc(C(=O)N2CCCn3nc(CO)cc3C2)c2ccccc2c1=O	6%
Cc1nnnn1CCc1nc(COc2cccc(F)c2)nn1CCO	-2%
CN1[C@@H](CCC(=O)N2CCOCC2)CNC(=O)[C@@H]2[C@H]1CCN2CC(C)(C)C	2%[70.6 µM]
c1ccc(O[C@H]2COCCN(Cc3cccc4c3OCO4)C2)cc1	-8%[70.6 µM]
O[C@H]1[C@H](NCC2CCCC2)[C@@H](C2CCCCC2)C[C@H]1O	-7%[70.6 µM]
COCC(=O)NC1CCC12CCN(Cc1ccc(C)c(C)c1)CC2 (configuration not stated)	3%
CC(C)CCN1CCC(N2CCN(S(=O)(=O)Cc3ccc(F)cc3Cl)CC2)C1=O (configuration not stated)	-9%
